Assay outcomes from PubChem.
LANA-H2A inh – blocks KSHV LANA binding to histone H2A/H2B. 320,000 compounds, 0.6% hits. inhibition, % (test concentration not listed). Q9QR71. AID 2629. cell-free LANA-H2A/H2B peptide, fluorescence polarization; in the data active = inhibition mostly above about 10%, no sharp cut-off; inactive = mostly below about 6.7%;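 also: stock transfer was 7.5 nL into about 10 µL; 0% = median of vehicle wells and 100% = median of positive control wells; one replicate is shown; the record names a cut of 25% in any replicate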
Target sequence (Q9QR71 whole entry, looked up): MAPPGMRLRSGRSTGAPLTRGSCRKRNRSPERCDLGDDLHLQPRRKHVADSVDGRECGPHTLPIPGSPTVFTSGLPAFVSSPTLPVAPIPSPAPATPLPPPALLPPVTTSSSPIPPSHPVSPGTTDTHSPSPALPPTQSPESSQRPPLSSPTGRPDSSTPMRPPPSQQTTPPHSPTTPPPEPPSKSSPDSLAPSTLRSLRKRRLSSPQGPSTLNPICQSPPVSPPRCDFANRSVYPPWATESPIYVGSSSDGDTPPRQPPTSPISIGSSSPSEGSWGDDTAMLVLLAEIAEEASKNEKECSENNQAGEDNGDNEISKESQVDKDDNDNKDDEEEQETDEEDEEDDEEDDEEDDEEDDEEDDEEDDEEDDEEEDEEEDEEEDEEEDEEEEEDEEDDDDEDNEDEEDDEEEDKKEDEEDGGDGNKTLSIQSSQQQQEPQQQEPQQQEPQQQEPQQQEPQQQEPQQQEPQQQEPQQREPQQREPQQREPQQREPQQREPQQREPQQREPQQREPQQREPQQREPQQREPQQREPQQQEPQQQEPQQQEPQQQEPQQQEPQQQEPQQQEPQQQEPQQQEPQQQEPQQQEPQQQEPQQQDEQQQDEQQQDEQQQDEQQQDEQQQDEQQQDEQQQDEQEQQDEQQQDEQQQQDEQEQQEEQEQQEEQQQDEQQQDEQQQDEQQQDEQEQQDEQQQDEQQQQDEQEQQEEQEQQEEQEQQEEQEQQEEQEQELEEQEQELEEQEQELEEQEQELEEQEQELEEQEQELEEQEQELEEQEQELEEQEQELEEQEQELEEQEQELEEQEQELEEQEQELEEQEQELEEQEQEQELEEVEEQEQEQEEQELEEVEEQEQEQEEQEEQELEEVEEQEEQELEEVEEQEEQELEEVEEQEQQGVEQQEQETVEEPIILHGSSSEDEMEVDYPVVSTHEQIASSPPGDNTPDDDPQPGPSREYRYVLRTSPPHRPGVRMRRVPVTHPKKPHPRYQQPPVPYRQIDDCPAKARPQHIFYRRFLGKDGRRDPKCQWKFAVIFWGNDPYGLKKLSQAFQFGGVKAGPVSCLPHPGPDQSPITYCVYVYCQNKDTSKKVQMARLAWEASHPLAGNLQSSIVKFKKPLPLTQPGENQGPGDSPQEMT
B2AR ag – agonists of human beta-2 adrenergic receptor inducing internalization | AID 504454 | 340,000 compounds, 0.43% hits | Am2.2-beta2AR cells, FAP receptor internalization, flow cytometry; reference of the scale not given here | response, % (concentration not given with the values);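 active = response above a set limit, near 3 SD of response in nonfluorescent compounds, cut at about 42% in these data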;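 also: stock transfer was 100 nL into about 11 µL; a reference agonist was the positive control; negative values mostly stem from fluorescent compounds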
Calb FLC – affects C. albicans growth with fluconazole; C. albicans CaCi-2 (fluconazole-resistant clinical isolate) + fluconazole, Alamar Blue growth, 48 h; growth inhibition, % (concentration not given with the values); 300,000 compounds, 0.57% hits;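 active = most replicates above 75%; inconclusive = exactly half above 75%; inactive = most below 75%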;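 also: all wells also contain fluconazole at 8 µg/ml as a sub-toxic cotreatment; 0% = median of DMSO wells and 100% = median of geldanamycin control wells; wells of about 8 µL received 7.5 nL stock; the first replicate is given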
RanGTP-Impb inh – disruptors of Ran-importin-beta complex formation – biochemical, FRET, CFP-Ran, YFP-importin-beta, homogeneous, primary screen; cell-free CFP-Ran/YFP-importin-beta FRET ratio; inhibition, % (concentration not given with the values); 300,000 compounds, 1.1% hits;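 active = most replicates above 15%; inconclusive = exactly half above 15%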;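 also: 0% = DMSO wells and 100% = Ran loaded with GDP instead of GTP; wells of about 40 µL received 100 nL stock; the first replicate is given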
UCH37 inh – inhibitors of human deubiquitinating enzyme UCH37; 330,000 compounds, 0.33% hits; purified proteasome/UCH37, Ub-AMC cleavage fluorescence; inhibition, % (concentration not given with the values); AID 588478; Q9Y5K5;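 active = mean of two replicates above 20%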;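 also: 0% = compound-free wells with enzyme and 100% = wells lacking proteasome; stock transfer was 100 nL into about 20 µL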
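Material: Human UCH37 enzyme supplied as purified proteasome complex | Schedule: 30 min preincubation with enzyme, 25 min cleavage at room temperature | Detection: AMC fluorescence 355/460 nm | Measure: % inhibition of Ub-AMC cleavage fluorescence | Controls: Wells without proteasome as full block, compound-free enzyme plus substrate as uninhibited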
A1 inh – inhibitors of the anti-apoptotic protein A1, read as caspase activation. 330,000 compounds, 0.066% hits. caspase activation, % (test concentration not listed). AID 2462. MEF A1-2A-BIM cells, Caspase-Glo 3/7 luminescence, 3 h; percent of clofoctol response, vehicle zero;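 active = over half of replicate activation scores above 10%, or exactly half above 10 with the replicate mean above 10; inconclusive = replicate mean below 10 yet half the replicates above 10; inactive = over half of replicates below 10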;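 also: wells of about 30 µL received 50 nL stock; many hits fall short of the cut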
T cruzi repl – T. cruzi replication inhibition; T. cruzi beta-gal in NIH3T3, luminescence, 90 h; inhibition, % (no concentration beside the values); 300,000 compounds, 1.4% hits;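 active = mean inhibition across valid replicates above about 55%, limit read from the data; inconclusive = mean below that limit but half or more replicates reach it; inactive = mean below it, under half of replicates reach it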;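 also: signal also drops with host cell toxicity which is not excluded here; 0% = plate median of DMSO wells and 100% = zero luminescence signal; higher percent means less beta-gal luminescence so fewer parasites; stock transfer was 50 nL into about 50 µL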
Beta apoptosis – blocks beta cell apoptosis | 300,000 compounds, 0.8% hits | AID 435005 | protection from apoptosis, % (test concentration not listed) | INS-1E cytokine-induced death, ATP luminescence, 48 h; percent of positive-control rescue, neutral wells zero;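 active = all replicates at 75% or more, or half of them and the mean; inconclusive = half reach 75% but not the mean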;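 also: 0% = cytokine-treated negative control wells and 100% = positive control rescue; higher means more ATP so stronger rescue from cytokine killing; wells of about 40 µL received 100 nL stock; the first replicate is given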
* hit, by the source's call; ? = inconclusive; . = no result given.

SMILES	LANA-H2A inh	B2AR ag	Calb FLC	RanGTP-Impb inh	UCH37 inh	A1 inh	T cruzi repl	Beta apoptosis
CC1CCC(NC(=O)C(NS(=O)(=O)c2cccc3nsnc23)C(C)C)CC1 (configuration not stated)	2.1	2	-1	1.8	6.9	-1.3	9	0
NC(=O)CC(NC(=O)c1ccccc1)c1ccc(N2CCC(Br)CC2)c([N+](=O)[O-])c1 (configuration not stated)	-3.2	-4	-13	3.2	1.9	0.0	-2	-6
CCN(C1CCCCC1)S(=O)(=O)c1c(C)n(C)c(=O)n(C)c1=O	-1.1	-2	1	3.0	-1.5	-0.6	3	.
COc1cc(C)ccc1OCCCCN1CC(C)OC(C)C1 (configuration not stated)	0.9	5	-15	-3.8	-1.4	-0.2	15	.
COc1ccc(C(OC(=O)c2ccco2)C(=O)NCc2ccco2)cc1 (configuration not stated)	-1.8	1	1	-2.4	-0.1	0.7	-10	-2
Oc1cccc(/C=N/Nc2ccc(Cl)nn2)c1	-4.6	4	-4	5.7	.	1.5	4	-1
CCCn1c(N)c(N(CCOC)C(=O)c2cc(-c3ccco3)nc3ccccc23)c(=O)[nH]c1=O	0.6	-9	13	2.2	-9.1	-0.7	2	1
Cc1ccc(NC(=O)CN(CCc2ccccc2)S(C)(=O)=O)cc1	-3.0	-8	-5	-1.1	1.6	1.6	-1	.
Cc1cc(Nc2ccccc2)cc(=O)n1C	-7.0	2	2	1.0	1.6	-0.4	-4	-3
CCN(CC)c1ccc(C(=O)n2cnc3ccccc32)cc1	1.5	-3	8	5.6	.	0.0	4	-8
COc1ccc(CNCC(C)NCc2ccc(OC)c(OC)c2)cc1OC (configuration not stated)	-1.9	-5	-4	-2.7	1.5	1.1	44	-5
Cc1cccc(-c2noc(CNC(=O)Nc3ccc(F)cc3)n2)c1	-0.4	-6	-17	4.5	5.0	0.4	7	1
CCCC(=O)N1CC(=O)Nc2ccc(Br)cc2C1c1ccc(F)cc1 (configuration not stated)	3.8	2	-8	-3.3	3.6	0.7	-2	-3
Cc1ccc(S(=O)(=O)N2CCc3ccccc3C2CC(=O)O)cc1 (configuration not stated)	2.5	-2	-8	-0.7	2.5	0.4	-12	4
N/C(=N\OC(=O)c1ccc(Cl)c(Cl)c1)c1cccc(CSc2ccccn2)c1	-1.4	9	1	2.2	1.2	-1.4	-6	0
CCCCCCn1cc(C(=O)OCC)c(=O)c2cc(F)c(F)cc21	3.5	1	4	-1.1	3.1	-1.7	-10	0
N#CC(CC(=O)c1ccc(F)cc1)c1ccc2c(c1)OCO2 (configuration not stated)	0.6	3	-23	-0.1	0.5	0.4	-9	-3
Cc1cccc(CN2C(=O)c3ccccc3Sc3ccc(C(=O)O)cc32)c1	4.0	8	6	8.3	-0.1	1.2	-3	-3
CCCOC(=O)c1cccc(NC(=O)C(C)(C)C)c1	2.4	2	1	-0.8	2.7	0.1	2	.
Fc1ccccc1C(c1nnnn1C1CCCC1)N1CCN(Cc2ccccc2)CC1 (configuration not stated)	2.3	-10	3	-3.0	3.8	0.1	11	5
CCOC(=O)C1C(=O)NC(c2ccccc2)=NC1c1cccc(Br)c1 (configuration not stated)	-0.7	-7	19	1.5	-0.4	-0.2	-21	0
Cc1cccc(Oc2ccc(Cl)cc2N)c1	-5.4	1	-27	-0.7	0.2	0.2	-5	-3
COc1ccc([N+](=O)[O-])cc1C(=O)NC1CCN(Cc2ccccc2)CC1	0.1	-7	-1	-0.1	6.5	1.0	15	-1
O=C(O)/C=C/c1cccc(NS(=O)(=O)c2ccccc2)c1	-2.3	-1	-11	0.1	2.2	0.6	-4	-1

3 records drawn at random from the list so far, as already listed:
SMILES	LANA-H2A inh	B2AR ag	Calb FLC	RanGTP-Impb inh	UCH37 inh	A1 inh	T cruzi repl	Beta apoptosis
CCCCCCn1cc(C(=O)OCC)c(=O)c2cc(F)c(F)cc21	3.5	1	4	-1.1	3.1	-1.7	-10	0
CC1CCC(NC(=O)C(NS(=O)(=O)c2cccc3nsnc23)C(C)C)CC1 (configuration not stated)	2.1	2	-1	1.8	6.9	-1.3	9	0
Cc1cccc(Oc2ccc(Cl)cc2N)c1	-5.4	1	-27	-0.7	0.2	0.2	-5	-3

Going on with the list.
SMILES	LANA-H2A inh	B2AR ag	Calb FLC	RanGTP-Impb inh	UCH37 inh	A1 inh	T cruzi repl	Beta apoptosis
COc1ccc(C(=O)OCC(=O)NC2CC2)cc1F	1.3	-5	.	.	3.1	1.3	.	-6
COc1ccccc1CNC(=O)COC(=O)c1ccc(C)s1	-3.7	2	.	.	0.9	0.3	.	-1
CC(C)COc1ccc(C(=O)N2C(=O)c3ccc(N)cc3C2=O)cc1	-5.3	5	?	1.7	-85	0.5	-16	-3
COc1ccc(NC(=O)CCNS(=O)(=O)c2ccc(NC(C)=O)cc2)cc1Cl	-4.3	5	-4	-0.1	1.4	1.5	-7	.
CC(C)n1c(NCc2ccc(Cl)cc2)nc2ccccc21	-2.1	-7	-1	0.8	-0.6	0.4	15	5
Cn1nnnc1SCC(=O)N(C1CCCCC1)C1CCS(=O)(=O)C1 (configuration not stated)	1.5	0	2	0.0	-2.2	-0.3	-15	-2
CCOc1ccc(N(CC(=O)Nc2ccc(F)c(F)c2)S(=O)(=O)c2c(C)noc2C)cc1	0.3	1	-1	-1.2	3.3	0.0	0	9
CCN(CC)c1ccc(/C=N/N2CCN(Cc3ccccc3Cl)CC2)c(O)c1	3.7	4	-10	-1.7	.	1.1	50	-3
COCCN1C(=O)c2ccccc2C(C(=O)N2CCN(c3ccccc3)CC2)C1c1ccc(F)cc1 (configuration not stated)	0.3	-1	4	-2.5	0.3	0.5	7	-20
O=C(CSc1nnc(-c2ccco2)o1)NC1CCCCC1	0.4	-13	-15	-0.7	0.4	0.4	-2	-5
CN(C)CCN(Cc1cccs1)S(=O)(=O)c1csc(C(N)=O)c1	-2.8	5	6	3.3	0.0	0.8	-3	-1
COc1ccc(-c2nc(C#N)c(NCc3ccccc3Cl)o2)cc1	-0.2	-3	-20	5.5	-10	1.2	.	0
Cn1c(=O)c2cc(S(=O)(=O)NC(Cc3ccccc3)C(=O)NCC3CCCO3)ccc2n(C)c1=O (configuration not stated)	-2.8	-8	?	-4.3	-1.0	-0.1	-9	-4
COCCn1c(NC(=S)NC(=O)C23CC4CC(CC(C4)C2)C3)cc(=O)[nH]c1=O	-1.9	10	-3	2.0	2.3	0.1	45	5
CC1CCCN(S(=O)(=O)c2ccc(C(=O)Nc3nnc(C4CC4)o3)cc2)C1 (configuration not stated)	-2.0	-2	2	0.0	-0.2	1.2	-6	10
CC1(C)CC(=O)C(C=NCC2CCN(C(=O)Cc3ccccc3)CC2)=C(O)C1	0.0	1	-12	3.7	3.6	-0.1	-10	0
COc1ccc(CC(=O)Nc2cc(=O)n(C)c(=O)n2C)cc1OC	-1.1	-4	-11	0.3	0.9	-0.3	-14	-26
CN1CCN(c2ccc(Cl)cc2NC(=O)c2nn(-c3ccccc3)c(=O)c3ccccc23)CC1	.	17	10	-2.2	3.7	.	11	.
CC(C)NC(=O)N(C)C[C@H]1Oc2ccc(NS(=O)(=O)c3ccc(F)cc3)cc2C(=O)N([C@H](C)CO)C[C@@H]1C	1.0	-5	.	.	4.2	1.7	.	5
COc1cc(/C=C/C(=O)N2CCN(CC(O)COc3ccccc3)CC2)cc(OC)c1OC (configuration not stated)	3.6	-3	0	1.7	-7.5	-0.1	9	1
CCN(C(=O)CCN1C(=O)c2ccccc2C1=O)C1CCCCC1	-0.1	-26	-7	0.4	1.0	0.5	-6	-7
CCOc1ccc(C2NC(=O)NC(C)=C2C(=O)OCc2ccccc2)cc1 (configuration not stated)	2.1	2	7	-2.9	7.0	0.2	1	-2
COC(=O)C(C)Oc1ccc(Cc2ncc(C(F)(F)F)cc2Cl)cc1 (configuration not stated)	7.4	-1	4	-2.1	1.4	-0.2	7	-2
O=C(CSc1nc2ccccc2s1)c1cc2ccccc2o1	-3.0	14	26	1.7	1.7	-0.7	15	-2
COC(=O)c1ccc(N2CCCCC2)c(NS(=O)(=O)c2ccc(C)cc2)c1	3.7	0	5	2.8	-0.1	-0.2	47	.
Cn1c(=O)[nH]c(=O)c2c1nc(CN1CCN(c3ccccc3F)CC1)n2CCc1ccccc1	1.0	-3	8	2.3	4.6	-0.1	10	1
O=C(CN1C2=NCCCN2c2ccccc21)c1ccc(Br)s1	-8.9	-12	-23	8.7	5.8	0.8	22	13
CC(/C=N/NC(=O)c1ccc(Cn2cc([N+](=O)[O-])cn2)o1)=C\c1ccccc1	0.0	4	10	0.9	.	0.1	22	4
CCOc1ccc(C(=O)N(CN2CCCC2=O)c2ccc(C)cc2)cc1	0.8	.	9	-3.2	1.6	0.4	7	-12
CCC(=O)N1CCc2cc(S(=O)(=O)NCCC(=O)NCc3ccccc3Cl)ccc21	-15	-10	-4	1.2	0.2	0.2	8	6
Cc1nc2c(nnn2Cc2ccccc2Cl)c(=O)[nH]1	-3.7	2	0	3.8	4.7	0.9	3	.
CCc1ccc(N(CC(=O)NC2CCCCC2)C(=O)CNC(=O)c2ccco2)cc1	-8.5	-11	1	10	1.2	0.6	8	-1
CCS(=O)(=O)Nc1ccc(C2=NN(S(=O)(=O)CC)C(c3cccs3)C2)cc1 (configuration not stated)	5.7	14	-2	-1.3	-50	-1.2	12	.
Cn1cccc1Cc1nnc(SCC(=O)Nc2ccccc2F)n1CCc1ccccc1	-5.0	-1	5	2.9	-0.1	0.6	2	-1
Cc1ccc(S(=O)(=O)N(C)C)cc1NC(=O)CCNC(=O)c1ccccc1Cl	-3.8	-14	-4	0.0	5.2	1.1	-20	-7
CCCn1c(N)cc(=O)n(CCC)c1=O	-0.3	-8	-14	?	0.8	0.1	-23	-6
CCOC(=O)N1N=C(c2ccccc2)CC1(O)C(C)(F)F (configuration not stated)	-0.9	2	-10	-1.6	4.9	-0.2	-16	-2
CCCCNC(=O)CSc1nc2ccc(C)cc2[nH]1	-2.3	-9	1	-1.1	1.1	0.0	-2	-10
O=C1c2ccccc2C(Nc2ccc(Cl)cn2)N1Cc1ccccc1 (configuration not stated)	1.8	4	-6	4.6	4.8	0.6	20	21
CCCCC(=O)NNC(=S)NC(=O)c1ccc(C)cc1	-6.4	2	101*	2.6	-0.2	0.3	-27	3
O=S(=O)(N/N=C/c1ccc(OC2CSC2)cc1)c1ccccc1	.	-25	-3	23	.	0.8	-6	0
COc1cc(C(=O)OCC(=O)c2c(N)n(C)c(=O)n(C)c2=O)ccc1OCCC(C)C	2.9	-6	24	2.1	4.1	-1.0	-7	5
Clc1ccc(-c2nnc(-c3ccccc3)c(-c3c[nH]c4ccccc34)n2)cc1	2.2	-3	-10	7.1	-0.8	0.8	-2	-9
COC(=O)c1ccc(C(c2c(N)n(Cc3ccccc3)c(=O)n(C)c2=O)N2CCOCC2)cc1 (configuration not stated)	0.1	-9	2	-1.7	6.6	-0.2	-4	-1
CN1CCN(CCCNC(=O)c2ccc(Cn3c(=S)[nH]c4ccc(Br)cc4c3=O)cc2)CC1	-2.5	-10	3	-1.8	7.0	-0.4	2	-3
